# Assay outcomes: PubChem BioAssay, National Center for Advancing Translational Sciences (NCATS)
# Cruzain inh noDet = cruzain (T. cruzi) inhibition without detergent. hit rate 2.3% among 200,000. purified cruzain, Z-FR-AMC fluorescence, no detergent. P25779. Potency, µM, for inactives: max response, negative = inhibition, usual class: inhibitors;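 further: plate controls were enzyme without inhibitor for no effect and buffer without enzyme for full effect; nearly all actives have a fitted effect of over 40% in size; top concentration of the series not given in the record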
# Target sequence (P25779 123-467 limits assumed): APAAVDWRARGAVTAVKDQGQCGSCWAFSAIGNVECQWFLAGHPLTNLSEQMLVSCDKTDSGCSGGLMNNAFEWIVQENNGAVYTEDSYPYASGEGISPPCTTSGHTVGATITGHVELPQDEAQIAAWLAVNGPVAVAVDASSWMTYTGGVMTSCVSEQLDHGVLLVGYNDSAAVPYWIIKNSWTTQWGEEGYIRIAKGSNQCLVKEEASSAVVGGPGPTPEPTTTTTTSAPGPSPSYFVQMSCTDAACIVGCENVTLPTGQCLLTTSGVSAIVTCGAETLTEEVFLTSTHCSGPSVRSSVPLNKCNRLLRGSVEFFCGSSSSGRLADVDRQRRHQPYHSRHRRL
#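 Detergent-free condition (0.00005% Triton X-100) in acetate buffer pH 5.5 with DTT. 1.5 nM enzyme and compound were pre-mixed 15 min, then 2 uM Z-FR-AMC substrate added; reaction progress from fluorescence change between first and third reads (60 s).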
# SARS PLpro yeast = SARS-CoV PLP inhibition in yeast | hit rate 0.19% among 330,000 | S. cerevisiae expressing SARS-CoV PLpro, growth rescue; control for the full effect not named in the record | Potency, µM (highest dose often 32.9 µM), without a hit: at the top dose activity, positive = growth rescue; active means well fitted rising curve with a large enough effect; inconclusive means small, poorly fitted or top-dose-only effect; inactive means no such curve, though single readings can be large or run the other way; further: 0% is about no effect; nearly all actives have a fitted effect of over 55% in size; growth read by luminescence after 48 h
# MARV entry inh = Marburg virus entry inhibition; AID 540276; hit rate 1.8% among 300,000; Potency, µM (series often up to 37.8 µM), inactives show at the highest dose activity change, negative = inhibition, hits mostly inhibitors; Marburg virus pseudotyped entry inhibition, cell reporter; control for the full effect not named in the record; about a third of the inactives were read at about 46 µM; active = well fitted inhibition curve with a large enough effect; inconclusive = small, poorly fitted or top-dose-only effect, or effect the other way; inactive = flat fitted curve, though single readings scatter; tested in HEK293 cells; about a fifth of its hits are not listed in these tables; further: on the % scale 0 is the no-effect control and ±100 the full control effect; luciferase read-out
# StopGo reporter = FMDV 2A StopGo reporter, luciferase signal; Potency, µM (doses to about 57.9 µM), without a hit: at the highest dose signal change, negative = less light; hit rate 1.2% among 410,000; human cells with a luciferase reporter of 2A StopGo recoding; control for the full effect not named in the record; AID 1159524; active = well fitted falling curve with a large enough effect; inconclusive = small, poorly fitted or top-dose-only effect; inactive = no such curve, though single readings can be large or run the other way; tested in HEK293T cells; further: on the % scale 0 is the no-effect control and ±100 the full control effect; nearly all actives have a fitted effect of over 45% in size; luciferase light after 4 h
# LASV entry inh = blocks Lassa virus binding to or entry into cells | Lassa virus pseudotype entry inhibition, cell reporter; control for the full effect not named in the record | Potency, µM (highest dose often 37.9 µM), without a hit: at the top dose activity change, negative = inhibition, hits mostly inhibitors | hit rate 1.2% among 300,000 | AID 540256; active means well fitted inhibition curve with a large enough effect; inconclusive means small, poorly fitted or top-dose-only effect, or effect the other way; inactive means flat fitted curve, though single readings scatter; tested in HEK293 cells; further: on the % scale 0 is the no-effect control and ±100 the full control effect; nearly all actives have a fitted effect of over 50% in size; luciferase read-out
# NS1 function inh = inhibitors of influenza NS1 protein function. S. cerevisiae slowed by influenza A NS1, growth recovery by OD600. Potency, µM (highest dose often 46.1 µM), for inactives: top-dose activity, positive = more growth. hit rate 0.4% among 270,000. AID 2326; active means well fitted rising curve with a large enough effect; inconclusive means small, poorly fitted or top-dose-only effect; inactive means no such curve, though single readings can be large or run the other way; further: nearly all actives have a fitted effect of over 50% in size
#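 Read-out: OD600 growth recovery of NS1-expressing budding yeast. Cells grown overnight at 30C in -URA glucose medium, washed, resuspended and diluted 1:100 in 2% galactose assay medium, pH 6.0. Same strain lacking NS1 served as positive control.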
# Cruzain inh Det = cruzain (T. cruzi) inhibition with detergent | hit rate 0.43% among 200,000 | P25779 | purified cruzain, Z-FR-AMC fluorescence, 0.01% Triton | AID 1478 | Potency, µM, for inactives: max response, negative = inhibition, usual class: inhibitors;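 further: plate controls were neutral wells for no effect and buffer without enzyme for full effect; nearly all actives have a fitted effect of over 40% in size; top concentration of the series not given in the record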
#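 Purified cruzain (1.5 nM final) was preincubated with compounds for 15 min at room temperature in 100 mM sodium acetate pH 5.5, 5 mM DTT, 0.01% Triton X-100. Reaction started with 2 uM Z-FR-AMC; AMC fluorescence change over 60 s gave activity.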
# RE007 growth inh = less growth of the S. pombe RE007 Vpr strain; Potency, µM (titrated, usually from 92.2 µM), for the others: at the top dose activity change, negative = less growth; S. pombe RE007 Vpr strain, BacTiter-Glo ATP luminescence, 24 h; control for the full effect not named in the record; hit rate 0.21% among 360,000; active = well fitted falling curve with a large enough effect; inconclusive = small, poorly fitted or top-dose-only effect; inactive = no such curve, though single readings can be large or run the other way;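 further: on the % scale 0 is the no-effect control and ±100 the full control effect; nearly all actives have a fitted effect of over 50% in size; the assay follows cell death caused by Vpr and the record does not say whether a fall means rescue or toxicity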
#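 Fission yeast strain RE007, carrying one chromosomally integrated HIV-1 vpr copy, was seeded at OD 0.01 in PMG+AL medium with 23 nL pinned compound. After 24 h at 30 °C and 99% humidity, viability was read by BacTiter-Glo luminescence.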
# Active calls of the source: *; u = inconclusive; x = not tested or not shown; & = joins results of further samples; [ ] = dose if it differs, or a comment. Unless noted, the call rests on the fitted dose curve; in most records, active means well fitted curve in the direction sought with a large enough effect; inconclusive means small, poorly fitted or top-dose-only effect, or another doubt; inactive means no such curve, though single readings can be large; an effect the other way counts as inactive or inconclusive. Potency means the concentration at half of the fitted maximal effect. Rows were taken by chance. About 4.7% of those tested had a hit in this group.
# Results follow in this order: Cruzain inh noDet | SARS PLpro yeast | MARV entry inh | StopGo reporter | LASV entry inh | NS1 function inh | Cruzain inh Det | RE007 growth inh
- COC(=O)c1ccc(NC(=O)c2cc3cc(C)ccc3n2C)cc1
→ u | x | -1.1%[46.1 µM] | 3.4% | 6.4%[46.1 µM] | x | -4.1% | x
- CCN1/C(=C2\C(=O)N(C)C(=S)N2C)C=Cc2cc(C)ccc21
→ 4.1% | -26.4% | 15.9% | u | 1.1% | -37.3% | -8.5% | -18.5%
- CCN1CCN(C(=O)c2cn(CC)c3ccc(S(=O)(=O)N(C)C)cc3c2=O)CC1
→ -18.0% | 13.2% | x | -14.3% | x | -0.3% | -6.1% | -1.9%
- COc1cc(C(=O)Oc2c(Sc3ccc(C)cc3)c(C)nn2-c2ccccc2)cc(OC)c1OC
→ 7.8% | x | -1.8%[46.1 µM] | -6.5% | 7.2%[46.1 µM] | x | -4.9% | x
- Cc1cccc(N2CCN(C(=O)CNC(=O)c3ccccc3)CC2)c1C
→ x | -0.2% | -19.3%[46.1 µM] | -6.8% | -12.7% | -1.9% | x | 22.4%
- CCOc1ccc(OCC)c(NC(=O)CN2CCN(CC)CC2)c1
→ -1.7% | 0.0% | 9.0% | -2.6% | 16.5% | -8.9% | 0.3% | 0.8%
- COc1ccc(NC(=O)CCC(=O)N2CCOCC2)c([N+](=O)[O-])c1
→ x | 5.4% | x | -19.8% | x | 4.1% | x | 7.6%
- O=C(CNS(=O)(=O)c1ccc(F)cc1)N1CCOCC1
→ x | -0.2% | 3.0%[46.1 µM] | 46.4%[activator] | -4.8%[46.1 µM] | 0.9% | x | -17.4%
- O=C(c1ccc(N2CCN(C(=O)c3ccccc3Br)CC2)cc1)c1cccc(F)c1
→ x | 0.7% | u | -14.4% | u | -4.6% | x | -2.5%
- CCOC(=O)C1=C(C)c2ccccc2N(C(=O)OC)C1(C)C(=O)OCC (stereo unspecified)
→ u | 5.2% | x | -37.5% | x | x | -3.3% | -5.1%
- CC(C)c1nc(SCC(=O)Nc2cccc(C(=O)O)c2)c2c3c(sc2n1)CCCC3
→ x | -5.1% | 2.0%[46.1 µM] | 12.6% | 20.1% | -12.9% | x | -6.4%
- Cc1ccc(C)c(N(CC(=O)N2CCCC2)S(C)(=O)=O)c1
→ x | 0.1% | 4.9%[46.1 µM] | 10.2% | 6.3%[46.1 µM] | 22.9% | x | -4.6%
- CCN(CC)CCNc1ccc(C)c2sc3ccc(O)cc3c(=O)c12
→ x | x | 2.24µM* | -22.2% | u | x | x | 11.6%
- Cc1cc(C)cc(NC(=O)c2sc3nc(-c4cc5ccccc5oc4=O)[nH]c(=O)c3c2C)c1
→ 10.1% | x | x | 0.0% | -1.4%[46.1 µM] | x | -1.6% | x
- CCC1CCCCN1S(=O)(=O)Cc1ccccc1Cl (stereo unspecified)
→ x | -0.2% | -11.5%[46.1 µM] | -14.3% | -11.8%[46.1 µM] | -4.2% | x | -7.4%
- COc1cc2nc(CN(C)Cc3ccc(OC)c(OC)c3OC)[nH]c(=O)c2cc1OC
→ x | -6.5% | x | 36.4%[activator] | x | -1.4% | x | 4.0%
- O=C(Nc1ccc(F)cc1)C1CCCN1S(=O)(=O)c1ccc(Br)cc1 (stereo unspecified)
→ x | -4.6% | 21.5%[46.1 µM] | -19.0% | u | -3.4% | x | -3.6%
- COc1cccc(CSc2nc3n(n2)C(c2ccccc2C)C(C(=O)Nc2ccccc2OC)=C(C)N3)c1 (stereo unspecified)
→ u | x | x | -7.1% | 7.6%[46.1 µM] | x | -2.1% | x
- CC(=O)Nc1ccc(S(=O)(=O)N2CCC(NC(=O)C(Cc3ccccc3F)NC(C)=O)CC2)cc1 (stereo unspecified)
→ x | 5.1% | 3.5%[46.1 µM] | 10.1% | 9.6%[46.1 µM] | 1.8% | x | 1.9%
- O=C1CCCc2c1cc(C(=O)NC1CCSC1=O)c(=O)n2-c1ccccc1 (stereo unspecified)
→ -5.1% | 9.9% | 12.2% | 33.6%[activator] | 5.4% | 6.5% | -3.0% | 11.3%
- CC(=O)c1sc(N/N=C/c2ccc(C(C)C)cc2)nc1C
→ x | -0.7% | -23.1%[46.1 µM] | 0.0% | u | x | x | -14.1%
- C=CCn1c(SCC(=O)c2ccccc2)nnc1-c1ccc2c(c1)OCO2
→ -1.6% | -9.5% | 3.5%&3.5% | -11.2% | 15.9% | -17.1% | 0.6% | -18.7%
- Cc1ccc(C(=O)c2oc3ccccc3c2NC(=O)Cc2coc3cc(C)ccc23)cc1
→ -8.0% | x | u | 22.1% | 3.2%[46.1 µM] | x | -0.7% | x
- O=C(c1ccc(S(=O)(=O)N2CCCCCC2)cc1)N1CCN(c2ccccc2)CC1
→ x | -3.0% | 11.2%[46.1 µM] | -26.4% | -13.9% | 1.7% | x | -6.0%
- COc1ccc(OC)c(CCNC(=O)c2sc3nc4n(c(=O)c3c2C)CCC4)c1
→ x | -0.1% | 16.3%[46.1 µM] | 1.3% | -11.1%[46.1 µM] | -21.7% | x | 9.1%
- O=C(CN1C(=O)NC2(CCCC2)C1=O)Nc1nc2ccc(F)cc2s1
→ x | 1.1% | 6.7% | 25.5% | 11.8% | x | x | -11.5%
- O=C(CN1CCN(S(=O)(=O)/C=C/c2ccccc2)CC1)NC(=O)NCc1ccco1
→ 15.2% | 7.7% | -12.8% | -9.7% | -14.9% | -13.0% | -2.1% | 5.8%
- COc1cc2c(cc1C1C(C#N)=C(N)OC3=C1C(=O)CC(C)(C)C3)OCO2 (stereo unspecified)
→ x | 3.6% | x | -1.5% | x | 5.1% | x | -8.4%
- CC(=O)Nc1cc(-c2ccccc2)ccc1O
→ 6.7% | -3.3% | 6.6% | 23.2% | 4.6% | -56.3% | 2.8% | -28.0%
- COC(=O)c1ccc(S(=O)(=O)N2CCc3ccccc32)cc1
→ x | -4.5% | 2.51µM* | -11.7% | u | -17.4% | x | 13.6%
- Cc1ccccc1CNc1ncnc2c1ncn2C1OC(CO)C(O)C1O (stereo unspecified)
→ 5.2% | x | u | x | 15.5% | -3.1% | 5.1% | x
- O=C(NNc1ccc(C2CCCCC2)cc1)C(O)(c1ccccc1)c1cccs1 (stereo unspecified)
→ -7.8% | -30.9% | u | -16.5% | u | -6.4% | -6.7% | 17.8%
- COc1cccc(-c2c(C(=O)N/N=C(\C)c3cccnc3)nnn2-c2nonc2N)c1
→ x | 2.4% | x | -2.2% | x | -3.1% | x | -3.6%
- COc1ccc(C)cc1NC(=O)C(C)N(c1ccc(C)cc1)S(C)(=O)=O (stereo unspecified)
→ -2.2% | 2.7% | -3.4% | -9.4% | -7.7% | -3.5% | -6.2% | 0.2%
- CNC(=S)N(CCc1ccc(OC)c(OC)c1)C1CC(=O)N(c2ccccc2)C1=O (stereo unspecified)
→ x | 1.2% | -5.0%[14.2 µM] | u | 1.9% | 3.3% | x | -4.9%
- C=CCOc1cccc(CNn2nnnc2N)c1
→ x | -2.4% | 0.5%[46.1 µM] | -16.8% | 2.3% | 1.5% | x | -4.8%
- CCOC(=O)c1c(C)c(C(=O)NC2CCCCC2)c(C)n1CC
→ -3.9% | -1.8% | 1.4%&2.1% | 11.3% | -4.3% | -2.9% | -3.1% | 4.4%
- COC(=O)c1sc(-c2ccccc2)cc1NC(=O)c1ccc(F)cc1
→ 10µM* | 1.2% | -33.8% | -13.3% | 10.0% | -4.3% | -3.1% | 8.3%
- Cc1ccccc1OCC(=O)N1CCc2ccccc2C1
→ x | -2.4% | x | 51.7%[activator] | x | -5.5% | x | 4.7%
- COc1ccc(-c2noc(-c3nnn(-c4ccc(C)cc4C)c3C)n2)cc1
→ -3.6% | x | x | 4.7% | 1.1%[46.1 µM] | x | 3.0% | x
- O=C1CCc2cc(S(=O)(=O)Nc3ccccc3F)ccc2N1
→ x | 8.4% | 6.8%&6.8% | 17.1% | -8.1% | x | x | 9.0%
- COCCn1c(=S)[nH]c2ccc(N(C)C)cc2c1=O
→ 1.8% | -3.2% | 3.4% | -1.8% | 0.5% | -5.6% | -5.1% | 1.8%
- CCOc1ccccc1CN1CCN(Cc2csc(C(C)=O)c2)CC1CCO (stereo unspecified)
→ x | 0.0% | -4.1%[46.1 µM] | -18.0% | 1.4% | -5.2% | x | -5.1%
- COc1ccc(F)cc1C(=O)C1CCCN(Cc2ccc3c(c2)OCCO3)C1 (stereo unspecified)
→ x | -3.0% | x | 3.8% | x | -5.2% | x | -6.5%
- CCOC(=O)Cn1c2ccccc2c2nc(C)sc21
→ x | -8.3% | 8.5%[46.1 µM] | 6.4% | x | x | x | -5.8%
- O=C1CC(c2c(Cl)cccc2Cl)c2c(ccc3ccccc23)N1 (stereo unspecified)
→ 4.8% | x | -1.5%[46.1 µM] | 0.0% | 12.4%[46.1 µM] | x | -12.6% | x
- CC(=O)Nc1cccc(OCc2cnc(Cl)s2)c1
→ x | -0.5% | x | 2.1% | x | -6.4% | x | 12.8%
- CCN(C(=O)Cn1nc(Cc2cccnc2)c2ccccc2c1=O)c1ccccc1F
→ -6.1% | x | 5.4%[46.1 µM] | -13.0% | -1.7%[46.1 µM] | x | -0.9% | x
- Cc1nnc(NC(=O)C(C)Sc2nnc(CCNC(=O)c3ccccc3F)n2C)s1 (stereo unspecified)
→ x | 2.8% | u | -8.3% | -1.1% | 7.6% | x | 1.7%
- CC(NC(=O)c1ccc([N+](=O)[O-])o1)C12CC3CC(CC(C3)C1)C2 (stereo unspecified)
→ x | -15.9% | -17.0%[46.1 µM] | -2.5% | -2.4% | -75.9% | x | 15.9%
- COc1ccc(-c2c(C)sc(NC(=O)c3ccnn3C)c2C#N)cc1
→ -4.2% | -1.7% | u | u | -22.4% | 15.7% | -6.3% | 42.2%
- Cc1cc(C)n2nc(SC(C)C(=O)NCc3ccco3)nc2n1 (stereo unspecified)
→ -2.7% | 4.4% | -1.4%[46.1 µM] | 14.6% | 3.7% | -7.7% | 2.6% | 29.3%
